A1 inh = inhibitors of the anti-apoptotic protein A1, read as caspase activation | MEF A1-2A-BIM cells, Caspase-Glo 3/7 luminescence, 3 h; percent of clofoctol response, vehicle zero | caspase activation, % (concentration not given with the values) | hit rate 0.066% among 330,000;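 active = over half of replicate activation scores above 10%, or exactly half above 10 with the replicate mean above 10; inconclusive = replicate mean below 10 yet half the replicates above 10; inactive = over half of replicates below 10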;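 note: wells of about 30 µL received 50 nL stock; many hits fall short of the cut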
Calb FLC = C. albicans growth modulation with fluconazole; C. albicans CaCi-2 (fluconazole-resistant clinical isolate) + fluconazole, Alamar Blue growth, 48 h; growth inhibition, % (no concentration beside the values); hit rate 0.57% among 300,000;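 active = most replicates above 75%; inconclusive = exactly half above 75%; inactive = most below 75%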;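 note: all wells also contain fluconazole at 8 µg/ml as a sub-toxic cotreatment; 0% = median of DMSO wells and 100% = median of geldanamycin control wells; wells of about 8 µL received 7.5 nL stock; the first replicate is given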
Vif A3G = inhibitors of Vif binding to APOBEC3G peptide, primary screen, biochemical, TR-FRET, GST-Vif 1-94, biotin-A3G peptide, dose response retest (AID 1117319); TR-FRET GST-Vif / biotin-A3G peptide binding; higher % means a stronger effect; test concentration not given here; strong numbers were not always called active; hit rate 0.57% among 260,000; inhibition, %; hits with a dose series show IC50 in µM;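 active = above the screen mean plus three standard deviations and confirmed in dose response; inconclusive = results disagree or hit not tested in dose response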;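 note: Vif residues 1-94 fused to GST binding biotinylated APOBEC3G peptide 110-148; 0% = full assay without inhibitor and 100% = GST in place of GST-Vif; retest series ran down from 100 µM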
Numbers without * were called inactive; ? = inconclusive; · = no result given; & = joins results of further samples. An excerpt, so the mix of outcomes need not match the whole.

Sequence of screens: A1 inh, Vif A3G, Calb FLC
Oc1oc(-c2cccc3ccccc23)nc1C=NCc1ccccc1
→ ·, -10%, ·
CC1=CC(C)(C)N(C(=O)C(C)N2C(=O)c3ccccc3C2=O)c2c(C)cc(C)cc21 (configuration not stated)
→ ·, -1%, ·
CC1CCCN(c2nc3c(c(=O)[nH]c(=O)n3C)n2CCSc2ncccn2)C1 (configuration not stated)
→ ·, -6%, ·
CCCn1c(SCC(=O)NC(=O)NCc2ccco2)n[nH]c1=O
→ ·, ?, ·
Cc1nc2ccccc2nc1N1CCCCC1
→ ·, 28%, ·
O=C1CCCC(NCCCCCCNC2=C([N+](=O)[O-])C(=O)CCC2)=C1[N+](=O)[O-]
→ ·, 76%, ·
CCOCCCNC(=O)c1cn(C)c2ccc(S(=O)(=O)N(C)C3CCCCC3)cc2c1=O
→ ·, 0%, ·
CN(C)c1ccc(/C=C/c2ccncc2)cc1
→ ·, 24%, ·
CCCc1cc(-c2[nH]ncc2-c2ccc3c(c2)OCCCO3)c(O)cc1OC
→ ·, 1%, ·
CNc1nc(-c2ccc3c(c2)CCN3C(=O)c2ccc(F)cc2)cs1
→ ·, 5%, ·
CCOC(=O)c1[nH]c2ccc(OC)cc2c1NC(=O)C(C)N1CCC2(CC1)OCCO2 (configuration not stated)
→ ·, -3%, ·
O.O.O.O=S(=O)([O-])OC[C@H]1O[C@@H](O[C@]2(COS(=O)(=O)[O-])O[C@H](OS(=O)(=O)[O-])[C@@H](OS(=O)(=O)[O-])[C@@H]2OS(=O)(=O)[O-])[C@H](OS(=O)(=O)[O-])[C@@H](OS(=O)(=O)[O-])[C@@H]1OS(=O)(=O)[O-].[Al]
→ ·, ?, ·
CCN(CC)CCN1C(=O)C(=O)/C(=C(/O)c2cnn(-c3ccccc3)c2C)C1c1cccs1 (configuration not stated)
→ ·, -1%, ·
Cc1cccc(C(=O)Nc2ccc(C)c(OC(=O)c3cccc(C)c3)c2)c1
→ ·, -5%, ·
Cc1nn(-c2ccccn2)c2c1C(c1ccccn1)C1=C(CCCC1=O)N2 (configuration not stated)
→ ·, 2%, ·
CC(C)=CCC/C(C)=C/CNC(=O)C[C@H]1C[C@H](C(=O)N2CCCCC2)[C@@]2(C)c3[nH]c4cc(CCC(=O)N(C)C)ccc4c3CCN2C1=O
→ ·, 4%, ·
CC1=Nc2ccccc2/C1=C/c1c(C)[nH]c2ccccc12
→ ·, 7%, ·
CCCCN(CCCNC(=O)C1CCN(S(=O)(=O)N2CCOCC2)CC1)Cc1ccccc1
→ ·, 28%, ·
CCCNc1ncnc2c1cnn2-c1ccc(OC)cc1
→ ·, -9%, ·
O=C1Cc2cc(CCN3CCN(c4nsc5ccccc45)CC3)c(Cl)cc2N1
→ ·, -10%, ·
COc1ccc(Nc2ccc3nnc(-c4ccc(Br)cc4)n3n2)cc1
→ ·, -2%, ·
COc1ccc(-c2sc3cc4c(cc3c2-c2ccc(OCCN3CCCCC3)cc2)OCO4)cc1
→ ·, -21%, ·
COc1ccc(-c2nsc3c(SCC(=O)Nc4cc(C)ccc4C)ncnc23)cc1
→ ·, 1%, ·
O=C1NC(=S)N/C1=C/c1ccc(-c2c(Br)cc([N+](=O)[O-])cc2Br)o1
→ ·, 39µM*, ·
CCOC(=O)N1CCN(CC(O)COCc2ccc(Cl)cc2)CC1 (configuration not stated)
→ ·, -2%, ·
Cc1ccc(S(=O)(=O)Nc2ccc(-c3nc4cc(NS(=O)(=O)c5ccc(C)cc5)ccc4o3)cc2)cc1
→ ·, 2%, ·
COc1ccc(C(CC(=O)N2CCN(c3ccccc3)CC2)c2c(OC)cc(OC)c3c(-c4ccccc4)cc(=O)oc23)cc1 (configuration not stated)
→ ·, ?, ·
Fc1ccc(/C=C2\CCCC3=C2NC(=S)NC3c2ccc(F)cc2)cc1 (configuration not stated)
→ ·, 28%, ·
Cc1cccc(N2CCN(C(=O)c3ccc4ncsc4c3)CC2)c1C
→ ·, -3%, ·
Cc1ccc2c(nc3s/c(=C/c4cccs4)c(=O)n32)c1C
→ ·, 5%, ·
CCC(c1nnnn1C1CCCCC1)N(Cc1ccco1)Cc1cc2ccc(OC)cc2[nH]c1=O (configuration not stated)
→ ·, ?, ·
Cc1c2c(=O)n(-c3nc4ccccc4s3)nc-2cc(O)n1Cc1ccccc1
→ ·, ?, ·
O=C(NCc1ccco1)c1cccn2c(=O)c3cc4ccccc4cc3nc12
→ ·, ?, ·
COc1ccc2c(c1)C(=O)[C@@H](OC(=O)NCc1ccc3c(c1)OCO3)[C@H](c1ccc(OC)c(Br)c1)O2
→ ·, -10%, ·
COc1cc(C(=O)O/N=C2/C=CC(=O)C(C)=C2C)cc(OC)c1OC
→ ·, 17%, ·
CC1(C)SC2[C@H](NC(=O)C(NC(=O)N3CCNC3=O)c3ccccc3)C(=O)N2C1C(=O)O (some centres not stated)
→ ·, 3%, ·
Cc1cccc(C2=NN(c3ccccc3)[C@H](CO)[C@H]2c2ccccc2)c1
→ ·, -2%, ·
N#Cc1c(NCCN)nc(NCc2ccccc2)c2c1CCN(Cc1ccccc1)C2
→ ·, -8%, ·
COc1ccc(N(C)C(=S)Oc2ccc(C(=O)Nc3ccccc3)cc2)cc1
→ ·, -6%, ·
Cc1ccc(S(=O)(=O)N2CCN(c3nc(C)nc4sc5c(c34)CCC(C)C5)CC2)cc1 (configuration not stated)
→ ·, -6%, ·
Cc1ccc2nsnc2c1S(=O)(=O)N(Cc1ccco1)Cc1cc2ccc(C)c(C)c2[nH]c1=O
→ ·, 11%, ·
CCCn1nnnc1SCC(=O)NNC(=O)C1CCCCC1
→ ·, -3%, ·
Cc1ccc2c(c1)c1ncnc(N3CCC4(CC3)OCCO4)c1n2C
→ ·, -7%, ·
Cc1nnc(NC(=O)CSc2nc(C(C)C)nc3sc(C)c(C)c23)s1
→ ·, -5%, ·
CCc1ccc(C2NC(C(=O)O)CS2)cc1 (configuration not stated)
→ ·, 26%, ·
CCCC/C=C1/CCC(CN(C)C)C1=O (configuration not stated)
→ ·, 4%, ·
O=C(CSc1nnc(Nc2ccccc2F)s1)NCc1ccco1
→ ·, 17%, ·
CCn1c2ccccc2c2cc(NC(=O)Nc3ccc([N+](=O)[O-])cc3C)ccc21
→ ·, 1%, ·
CC1=C(C(=O)OCC2CCCO2)C(c2ccc(C)o2)C2=C(CC(c3ccc(N(C)C)cc3)CC2=O)N1 (configuration not stated)
→ ·, ?, ·
Cc1ccnc(NC(=O)CCC(=O)N(CC(=O)NCCc2ccccc2)Cc2ccco2)c1
→ ·, 7%, ·
FC(F)(F)c1cc(C(F)(F)F)c2ccc(N/N=C/c3cccc(Cl)c3)nc2n1
→ ·, 11%, ·
Cn1c(=O)c2c(nc(NCc3ccccc3)n2Cc2ccc(F)cc2)n(C)c1=O
→ ·, 2%, ·
Cc1ccc(/C=C2/SC(=O)NC2=S)o1
→ ·, ?, ·
COc1cccc(C(=O)NCC2CCCO2)c1 (configuration not stated)
→ ·, 25%, ·
COC(=O)[C@@]1(Cc2ccc(OC)cc2)[C@H]2c3cc(C(=O)N4CCCC4)n(CCc4c[nH]c5ccc(O)cc45)c3C[C@H]2CN1C(=O)c1ccccc1
→ ·, ?, ·
CNCCCNCc1ccc(SC)cc1
→ ·, 2%, ·
Cc1cccn2c(=O)c3cc(C#N)c(=O)n(CC4CCCO4)c3nc12 (configuration not stated)
→ ·, 7%, ·
COC(=O)CCC(=O)N1CCc2cc(S(=O)(=O)N3CCN(c4ccccc4Cl)CC3)ccc21
→ ·, 3%, ·
COC(=O)[C@@H](NC(=O)O[C@H]1C(=O)c2ccc(OC)cc2O[C@@H]1c1ccc2c(c1)OCO2)C(C)C
→ ·, 13%, ·
O=C(OCC#CCSc1nnc(-c2ccncc2)o1)c1sc2ccccc2c1Cl
→ ·, -5%, ·

Going on with the list:
Sequence of screens: A1 inh, Vif A3G, Calb FLC
COc1ccc(-c2nc(-c3cccc(C)c3)nc(Cl)c2C#N)cc1
→ ·, 13%, ·
C[C@@H](C(=O)Nc1ccc2ccccc2c1)[C@H]1C[C@]1(C)[C@H](NP(=O)(c1ccccc1)c1ccccc1)c1ccccc1
→ ·, 0%, ·
N#Cc1c(/N=C/c2ccc(Br)s2)sc2c1CCC2
→ ·, 22%, ·
N#Cc1c(-c2ccccc2)cc(-c2ccco2)c(C#N)c1N
→ ·, 26%, ·
COc1ccc(Br)cc1C1NC(=O)c2c(sc3c2CCN(C)C3)N1 (configuration not stated)
→ ·, 0%, ·
Cc1cc(C(=O)CN2C(=O)NC3(CCCc4ccccc43)C2=O)c(C)n1Cc1ccco1 (configuration not stated)
→ ·, 5%, ·
CCCCn1c(=S)[nH]c2c(oc3ccc(Cl)cc32)c1=O
→ ·, -2%, ·
CCCCCn1c(SCC(=O)c2ccccc2)nc2cc(C(=O)NCc3ccco3)ccc2c1=O
→ ·, 0%, ·
Cc1ccc(-c2nc3ccccc3n3c(C)nnc23)cc1
→ ·, -2%, ·
CC(C)c1ccc(NC(=O)CSc2nc3c(c(=O)[nH]2)CCC3)cc1
→ ·, -1%, ·
CC[C@@H](C)[C@@H]1CN([C@@H](CN2CCC[C@H]2CN2C(N)=NC[C@H]2C(C)C)C(C)C)C(=N)N1CCc1ccc(Cl)c(Cl)c1
→ ·, -3%, ·
COc1ccc(-c2nnc(SCC(=O)Nc3sc4c(c3C#N)CCC4)n2CC2CCCO2)cc1 (configuration not stated)
→ ·, -1%&21%, ·
Cc1cc(Oc2ccccc2)nc2ccc(O)cc12
→ ·, -1%, ·
COc1ccccc1N1CCN(C(=O)c2nn(-c3ccccc3OC)c(=O)c3ccccc23)CC1
→ ·, 14%, ·
Cc1cccc(NC(=O)C2CCCN2S(=O)(=O)c2cccc3cccnc23)c1 (configuration not stated)
→ ·, -3%, ·
Cc1sc2c(c1C)c(=O)n(-c1ccc(F)cc1)c(=O)n2CC(=O)NCc1ccco1
→ ·, -4%, ·
Cn1c(=O)c2c(nc(SCC(=O)N3c4ccccc4CCc4ccccc43)n2C)n(C)c1=O
→ ·, 6%, ·
COc1ccc2c(c1)c1ncnc(N3CCN(Cc4ccc5c(c4)OCO5)CC3)c1n2C
→ ·, -8%, ·
Cc1nn2c(CN(C(=O)c3ccco3)c3ccccc3)nnc2c2ccccc12
→ ·, -7%, ·
CCN(C(=O)COC(=O)c1cc(C)n(-c2ccc(F)cc2)c1C)C1CCS(=O)(=O)C1 (configuration not stated)
→ ·, -6%, ·
CCOc1ccccc1CNC(=O)C1CCCN(c2nc3ccccc3o2)C1 (configuration not stated)
→ ·, 7%, ·
COc1cc(OC)cc(-c2sc3ccc(OC)cc3c2-c2ccc(OCCN3CCOCC3)cc2)c1
→ ·, -25%, ·
COc1ccc(-c2nnc3ccc(SCC(=O)Nc4cc(C)on4)nn23)cc1
→ ·, 1%, ·
CC(C)=CCC/C(C)=C/CNC(=O)C[C@H]1C[C@H](C(=O)N2CCOCC2)[C@@]2(C)c3[nH]c4cc(-c5ccco5)ccc4c3CCN2C1=O
→ ·, 2%, ·
CCCN=C1N(C)C[C@@H]2[C@@H]3C(=O)N(Cc4ccccc4)C(=O)[C@@H]3[C@](C)(C(=O)OC)N12
→ ·, -7%, ·
COc1ccc(/C=N/n2c(SC)nnc2-c2ccccc2)c(OC)c1OC
→ ·, 6%, ·
Cc1cc(C(=O)COC(=O)c2cc(O)c3ccccc3c2O)c(C)n1CC1CCCO1 (configuration not stated)
→ ·, 6.9µM*, ·
O=C(C[C@H]1C[C@H](C(=O)N2CCCCC2)[C@@]2(CCc3ccccc3)c3[nH]c4cc(-c5ccco5)ccc4c3CCN2C1=O)NCCC1=CCCCC1
→ ·, 4%, ·
c1ccc2c(c1)OC1OC2Oc2ccccc21
→ ·, -5%, ·
Cc1nn(-c2ccccn2)c2c1C(=O)C(Br)CC2 (configuration not stated)
→ ·, 3.4µM*, ·

Reformatted with each value named: entries from further up.
mol: c1ccc2c(c1)OC1OC2Oc2ccccc21
- A1 inh: ·
- Vif A3G: -5%
- Calb FLC: ·

mol: Cc1sc2c(c1C)c(=O)n(-c1ccc(F)cc1)c(=O)n2CC(=O)NCc1ccco1
- A1 inh: ·
- Vif A3G: -4%
- Calb FLC: ·

mol: COc1ccc(-c2nnc3ccc(SCC(=O)Nc4cc(C)on4)nn23)cc1
- A1 inh: ·
- Vif A3G: 1%
- Calb FLC: ·

mol: CC(C)=CCC/C(C)=C/CNC(=O)C[C@H]1C[C@H](C(=O)N2CCOCC2)[C@@]2(C)c3[nH]c4cc(-c5ccco5)ccc4c3CCN2C1=O
- A1 inh: ·
- Vif A3G: 2%
- Calb FLC: ·

(continued)
Sequence of screens: A1 inh, Vif A3G, Calb FLC
CCCCC(=O)Nc1sc2c(c1-c1nc3ccccc3s1)CCN(C(C)=O)C2
→ ·, -7%, ·
CCOCCCN(C(=O)Cn1nnc2ccccc21)C(C(=O)NCc1ccco1)c1ccncc1 (configuration not stated)
→ ·, 12%, 8
CCOC(=O)c1cccc(NC(=O)CSc2nc3cccnc3n2C)c1
→ 0.0, -10%, ·
COc1ccc(S(=O)(=O)Nc2cc(C(=O)NC3CCCCCC3)ccc2N2CCOCC2)cc1
→ -0.3, 12%, ·
O=C(Nc1nc(-c2ccc(S(=O)(=O)N3CCCC3)cc2)cs1)c1cccs1
→ 0.1, -1%, ·
